# Screening results: PubChem BioAssay, National Center for Advancing Translational Sciences (NCATS)
# Methyltransferases: Primary Screen for Target Class Profiling of Small Molecule Inhibitors of Methyltransferases; purified enzyme, MTase-Glo SAH luminescence; active compounds read low; calls only at 40 µM; actives 3.9% (n = 25,000); AID 1745853, 2022; active = -50% or lower on at least one of six enzymes; inconclusive = the cases between; inactive = as a rule above -30% on all six;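 note: enzymes were COMT GAMT GNMT HNMT NNMT and PNMT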
#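 Each enzyme was reacted with SAM and its substrate, with compounds tested once at 40 uM; SAH formed was read by MTase-Glo luminescence.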
# Calls only; i = inactive; ? = inconclusive; + = active, no number. % is set by controls: 0 for no effect and ±100 for the full control effect. A portion of the library (hit frequency here may not be typical).
SMILES,Methyltransferases
CC(NC(=O)Cn1ccc2cc(S(=O)(=O)N3CCCC3)ccc21)c1ccccc1 (centres undefined),i
CN1CCCCCCN(C(=O)Cn2c(=O)oc3ccccc32)[C@H]2CCC[C@H]2C1=O,i
OC[C@H]1O[C@@H](O[C@H]2[C@H](OCCc3ccccc3)O[C@H](CO)[C@@H](O)[C@@H]2O)[C@H](O)[C@@H](O)[C@@H]1O,?
CCCNC(=O)c1cc2n(n1)CC(C)(C(=O)NC1CCCCCC1)N(C)C2=O (centres undefined),i
COCCCN1C(=O)c2cc3ccc(OC)cc3n2CC1(C)C(=O)NC1CCCCCC1 (centres undefined),i
CCN1C(=O)c2cc(C(=O)NCc3ccc(SC)cc3)nn2CC1(C)C(=O)NC1CCCC1 (centres undefined),i
COc1ccc(CNC(=O)c2cc3n(n2)CC(C)(C(=O)NCc2ccc(C)cc2)N(C)C3=O)cc1OC (centres undefined),i
Cc1ccc(NC(=O)Cn2nc3n(CCCOC(C)C)c(=O)c4ccccc4n3c2=O)c(Cl)c1,i
O=C(Cn1ccc2ccccc2c1=O)N1CCCOC(Cn2cccn2)C1 (centres undefined),i
O=C(CCc1nnc2n(Cc3ccc(Cl)cc3)c(=O)c3ccccc3n12)N1CCC(Cc2ccccc2)CC1,i
CC(=O)Nc1c2n(c3ccc(F)cc13)CC(C)(C(=O)NC1CCCC1)N(Cc1ccccc1)C2=O (centres undefined),i
O=c1ccc(NS(=O)(=O)c2ccccc2)c2n1C[C@H]1C[C@@H]2CN(S(=O)(=O)c2ccccc2)C1,i
Cn1nccc1CN1CCCC2(COc3ccccc3C(=O)N2)C1 (centres undefined),i
CC1(C(=O)NC2CCCCCC2)Cn2c(ccc2-c2ccco2)C(=O)N1C1CCCC1 (centres undefined),i
CSc1ccc(CCNC(=O)CNC(=O)C2(C)Cn3c(cc4ccccc43)C(=O)N2C)cc1 (centres undefined),i
CNC(=O)N1CCC(C2CCN(C(=O)Cc3c(F)cccc3Cl)C2)CC1 (centres undefined),i
COc1ccc(C2COc3cc(O)ccc3C2)c(O)c1 (centres undefined),i
COc1ccc(CNC(=O)c2cc3n(n2)CC(C)(C(=O)NC2CCCC2)N(C)C3=O)cc1OC (centres undefined),i
CN(CC(=O)N1CCc2ccccc21)S(=O)(=O)c1ccc2[nH]c3c(c2c1)CCCC3,i
COc1cccc(C(=O)Cn2nc3n(Cc4ccc(C)cc4)c(=O)c4ccccc4n3c2=O)c1,i
CN(C)c1cccc(-c2c3c(=O)n(-c4ccccc4Cl)[nH]c3cc(=O)n2C)c1,?
CN1CCCCC(CC(=O)NCc2cc(F)ccc2F)C1=O (centres undefined),i
O=C(c1cn(CCC2CCCCN2)nn1)N1CCc2nc[nH]c(=O)c2CC1 (centres undefined),i
CC1CCN(S(=O)(=O)c2nn(C)cc2C(=O)NCCc2cccs2)CC1,i
CCCCCNc1nc2c(-c3ccccc3)nnn2c2ccccc12,i
COC(=O)c1ncn2c1C(=O)N(Cc1ccc(C)o1)C(C)(C(=O)NCc1ccccc1)C2 (centres undefined),i
Cc1ccccc1-c1[nH]nc2ncc(-c3c(C)noc3C)nc12,+
CC(C)CCn1c(=O)c2ccccc2n2c(=O)n(Cc3ccc(F)cc3Cl)nc12,i
Cc1cc(C)n(CCc2c(-c3ccccc3)ncn2C(C)CCCC(C)(C)O)n1 (centres undefined),i
CC(C)CCn1c(=O)c2ccc(C(=O)NC3CCCC3)cc2n2c(=O)n(Cc3ccccc3Cl)nc12,i
Cc1c(Cn2c(C)nc3c(C(=O)O)cc(N4CCOCC4)cc32)cccc1C(F)(F)F,?
COCCc1noc(CNC(=O)c2ccc(-c3ccccc3Cl)o2)n1,i
CCc1ccc(CNC(=O)c2ncn3c2C(=O)N(C2CC2)C(C)(C(=O)NCc2ccc(OC)cc2)C3)cc1 (centres undefined),i
CC1(C(=O)NC2CCCCCCC2)Cn2c(cc3sccc32)C(=O)N1Cc1ccc(F)cc1 (centres undefined),i
Cc1cc(C)cc(NC(=O)Cc2ccc(OC(C)(C)C(=O)O)cc2)c1,?
c1ccc2cc(-c3nc(C4CCOC4)no3)ncc2c1 (centres undefined),i
COC(=O)C1(O)C(OC(C)=O)CCC2C3(CC(c4ccoc4)OC3=O)C(C)=CCC21C(=O)OC (centres undefined),i
COC(=O)c1cc2n(n1)CC(C)(C(=O)NC1CCCCCC1)N(c1ccc(C)cc1)C2=O (centres undefined),i
CCOC(=O)C1CCN(S(=O)(=O)c2cc3[nH]c(=O)[nH]c3cc2C)CC1,i
COc1cc2c(Nc3ccc(NC(=O)c4ccccc4)cc3)ncnc2cc1OCCCN1CCOCC1,i
CN(C1CCc2nn(CC3CC3)c(=O)n2CC1)S(=O)(=O)c1ccc(C#N)cc1 (centres undefined),i
CCCC1c2cccn2CCN1C(=O)Nc1ccc(Br)cc1 (centres undefined),?
Cc1ccc(Cl)cc1N1C(=O)c2cc3occc3n2CC1(C)C(=O)NC1CCCCCC1 (centres undefined),i
CC1CCN(S(=O)(=O)c2ccc3c(ccn3CC(=O)NCCCc3ccccc3)c2)CC1,i
COc1ccc2[nH]cc(C(=O)Cn3nc4n(Cc5ccccc5)c(=O)c5ccccc5n4c3=O)c2c1,i

# An excerpt of these results, as tab-separated lines:
SMILES	Methyltransferases
CC1(C(=O)NC2CCCCCCC2)Cn2c(cc3sccc32)C(=O)N1Cc1ccc(F)cc1 (centres undefined)	i
Cc1cc(C)cc(NC(=O)Cc2ccc(OC(C)(C)C(=O)O)cc2)c1	?
c1ccc2cc(-c3nc(C4CCOC4)no3)ncc2c1 (centres undefined)	i
COC(=O)C1(O)C(OC(C)=O)CCC2C3(CC(c4ccoc4)OC3=O)C(C)=CCC21C(=O)OC (centres undefined)	i
COC(=O)c1cc2n(n1)CC(C)(C(=O)NC1CCCCCC1)N(c1ccc(C)cc1)C2=O (centres undefined)	i
CCOC(=O)C1CCN(S(=O)(=O)c2cc3[nH]c(=O)[nH]c3cc2C)CC1	i
COc1cc2c(Nc3ccc(NC(=O)c4ccccc4)cc3)ncnc2cc1OCCCN1CCOCC1	i

# (more compounds)
SMILES,Methyltransferases
CCC1(C(=O)NCCCN2CCCC2=O)CCCCC(=O)N1 (centres undefined),i
NC(=O)CN1C(=O)CO[C@H]2CN(Cc3ccc(Cl)cc3)C[C@H]21,i
CN1C(=O)c2cc(C(=O)N3CCN(Cc4ccccc4)CC3)nn2CC1(C)C(=O)NCc1ccc(F)cc1 (centres undefined),i
Cc1occc1-c1nc2ncccc2[nH]1,i
O=C(O[C@H]1[C@@H]2C=CO[C@@H](O[C@@H]3O[C@H](CO)[C@@H](O)[C@H](O)[C@H]3O)[C@@H]2[C@@]2(CO)O[C@@H]12)c1ccccc1,i
Cc1ccc(S(=O)(=O)c2nnn3c2nc(NCCC(C)C)c2ccccc23)cc1,i
C=C(C=O)[C@]1(O)C[C@@]2(C)C(=CC1=O)C=C[C@H](OC(=O)/C=C/C=C/[C@H](C)CC)[C@@H]2C,i
Cc1cc2c(cc1S(=O)(=O)N1CCN(c3ccc(F)cc3)CC1)n(C)c(=O)n2C,i
CCn1cc(-c2ccncc2)cc1C(=O)NCc1ccc(OC(C)C)cc1,i
O=C(NCc1cccnc1)c1nc(-c2ccc(Cl)cc2)c2ccccn12,i
COc1ccc(OC)c2c1cc1n2CC(C)(C(=O)NC2CCCCC2)N(C(C)c2ccccc2)C1=O (centres undefined),i
N#Cc1ccc(CN2CC[C@H](c3nnc(Cc4ccccc4)o3)C2)cc1,i
CCCSCCCN1C(=O)c2ccc(-c3ccco3)n2CC1(C)C(=O)NC1CCCC1 (centres undefined),i
COc1cncc([C@@H](NC(=O)Cc2ccsc2)C2CC(O)C2)c1 (some centres undefined),i
CCOC(=O)C1=C(C)NC(C)=C(C(=O)OCC)C1c1c(F)c(F)c(F)c(F)c1F,i
Cc1cc(C)cc(N2C(=O)c3cc(-c4ccccc4)nn3CC2(C)C(=O)NCc2ccccc2)c1 (centres undefined),i
CCOc1ccccc1CN1C(=O)c2c(C(=O)OC)ncn2CC1(C)C(=O)NC1CCCCCC1 (centres undefined),i
CCCN(C)C(=O)CCc1ccnc(N2CCOCC2)c1,i
O=C(Nc1ccc(F)cc1)N1Cc2c(sc3c2CCCC3)-n2cccc2C1c1cccc(F)c1 (centres undefined),i
CC1CC(C)CN(CCCN2C(=O)c3ccc(-c4ccco4)n3CC2(C)C(=O)NC2CCCC2)C1 (centres undefined),i
CN1C[C@H](NCc2nccs2)CCC[C@@H](C(=O)NC2CCOCC2)CC1=O,i
Cc1ccc(CN2C(=O)c3cc4sccc4n3CC2(C)C(=O)NC2CCCCCCC2)cc1 (centres undefined),i
COc1ccc2c(c1)c(NC(C)=O)c1n2CC(C)(C(=O)NC2CCCC2)N(Cc2ccccc2)C1=O (centres undefined),i
CCNC(=O)O[C@H]1COCCN(c2nc3ccccc3o2)C1,i
COCCC(=O)N1CCCN(C(=O)C2CC2)c2ccccc21,i
CCCCCOC(=O)Nc1nc(=O)n(C2O[C@H](C)[C@@H](O)[C@H]2O)cc1F (some centres undefined),?
CCCn1c(=O)c2ccc(C(=O)NC(C)C)cc2n2c(=O)[nH]nc12,i
C=CCCN1CCC2(CC1)CN(C(=O)c1c(F)cccc1F)c1ccc(Cl)cc12,i
CCn1cc(S(=O)(=O)NCC2Cn3cccc3C(=O)N2C)cn1 (centres undefined),i
CCN1CC2(CCN(Cc3cc4c(cc3OC)OCCCO4)CC2)OC1=O,i

# Next part (two carried over from the part before).
SMILES,Methyltransferases
CCn1cc(S(=O)(=O)NCC2Cn3cccc3C(=O)N2C)cn1 (centres undefined),i
CCN1CC2(CCN(Cc3cc4c(cc3OC)OCCCO4)CC2)OC1=O,i
C=C1C(=O)OC2/C=C(\C)CC/C=C(\C=O)C(OC)C(OC(=O)C(C)CC)C12 (centres undefined),+
O=C1CN(Cc2ccc(-c3cc(F)cc(F)c3)cc2)CCN1c1cc(Cl)ncn1,i
C/C=C(\C)C(=O)O[C@H]1C=C(CO)C(=O)[C@H](OC(C)=O)[C@H]1C(C)C,i
O=C(CCn1ccc2cc(S(=O)(=O)N3CCCCC3)ccc21)NCCC1=CCCCC1,i
CCOC(=O)C1CCC(CNC(=O)N2CCn3cccc3C2C)CC1 (centres undefined),i
O=C(O)CCc1c(C(=O)O)[nH]c2cc(Cl)cc(Cl)c12,i
Cc1cc(C)c(NC(=O)CN(C)S(=O)(=O)c2ccc3[nH]c4c(c3c2)CCCC4)c(C)c1,i
C=Cc1c(C)c2cc3[nH]c(cc4nc(cc5nc(cc1[nH]2)C(C)=C5CCC(=O)O)C(CCC(=O)O)=C4C)c(C)c3C=C,i
CC(C)NC(=O)CCc1cc2n(n1)CCN(C(=O)[C@H]1CCCO1)C2,i
CN(C)C[C@@H]1CN(Cc2ccccn2)C[C@H]1NC(=O)c1ccc(Cl)s1,i
COC[C@@H]1[C@H](NC(=O)c2csc(C)c2-c2ccccc2)[C@@H]2CCO[C@H]12,i
CCCNC(=O)NS(=O)(=O)c1ccc(Cl)cc1,i
CC1(C(=O)NC2CCCCCCC2)Cn2c(ccc2-c2ccco2)C(=O)N1Cc1cccc(Cl)c1 (centres undefined),i
Cc1ccc(N2C(=O)c3cc4occc4n3CC2(C)C(=O)NC2CCCC(C)C2C)c(C)c1 (centres undefined),i
C[C@H]1[C@@H]2[C@@H](O)C([C@H](C)C(=O)NC3CCCCC3)CC[C@@]2(C)CC[C@@H]1NC(=O)C1CC1 (some centres undefined),i

# In the list so far, 2 contain two or more sulfur atoms:
SMILES,Methyltransferases
O=c1ccc(NS(=O)(=O)c2ccccc2)c2n1C[C@H]1C[C@@H]2CN(S(=O)(=O)c2ccccc2)C1,i
CC1CCN(S(=O)(=O)c2nn(C)cc2C(=O)NCCc2cccs2)CC1,i

# Remaining list, next part:
SMILES,Methyltransferases
COc1ccc(N2C(=O)CSc3c(c4ccccc4n3C)C2C(=O)NCCC(C)C)cc1 (centres undefined),i
C=C(CC/C=C(\C)C(=O)O)C1(O)CC=C(C)CC1 (centres undefined),i
COc1ccc(OC)c(-c2nnc3ccc(-c4ccc(OC)c(O[C@@H]5CCOC5)c4)nn23)c1,i
Cc1cc2[nH]c(=O)[nH]c2cc1S(=O)(=O)N1CCCC1,i
COc1ccccc1NC(=O)Cn1nc2n(Cc3ccc(C)cc3)c(=O)c3ccccc3n2c1=O,i
O=C(NC1CCCCC1)[C@@H]1Cc2nc[nH]c2CN1Cc1ccc(Cl)cc1,i
CCOc1ccccc1CN1CCC(Cc2nc(-c3cccnc3)n[nH]2)C1 (centres undefined),+
COc1cccc(N2C(=O)c3cc4sccc4n3CC2(C)C(=O)NC2CCCCC2C)c1 (centres undefined),i
CCOC(=O)CNC(=O)N1Cc2c(sc3c2CCCC3)-n2cccc2C1C(C)C (centres undefined),i
CCOC(=O)CNC(=O)C1(C)Cn2c(ccc2-c2ccco2)C(=O)N1c1ccc(OC)c(OC)c1 (centres undefined),i
COc1cc2c(cc1O)CC[C@H]1[C@@H]2CC[C@]2(C)[C@H](O)CC[C@@H]12,+
Cc1ccc(N2C(=O)c3cc(-c4ccco4)nn3CC2(C)C(=O)NC2CCCCC2)cc1Cl (centres undefined),i
COc1cccc(CN2C(=O)c3cc4ccc(OC)cc4n3CC2(C)C(=O)NC2CCCCCC2)c1 (centres undefined),i
COc1ccc(-c2cn(C)c(=O)n3cc(CN4CCNC(=O)C4)nc23)cn1,i
COc1cccc(-c2ccc(C(=O)N3CCC(NC(=O)N(C)C)CC3)cc2)c1,i
CC(C)C[C@H](C(=O)O)c1cc(-c2ccc(C(F)(F)F)cc2)cc(-c2ccc(C(F)(F)F)cc2)c1,+
Cn1c(=O)n(C)c2cc(S(=O)(=O)Nc3ccc4c(c3)OCO4)ccc21,i

# 4 records drawn at random from those above, as already listed:
SMILES,Methyltransferases
Cc1cc2[nH]c(=O)[nH]c2cc1S(=O)(=O)N1CCCC1,i
CC(C)C[C@H](C(=O)O)c1cc(-c2ccc(C(F)(F)F)cc2)cc(-c2ccc(C(F)(F)F)cc2)c1,+
COc1cc2c(cc1O)CC[C@H]1[C@@H]2CC[C@]2(C)[C@H](O)CC[C@@H]12,+
COc1ccc(-c2cn(C)c(=O)n3cc(CN4CCNC(=O)C4)nc23)cn1,i
